2A StopGo: High Throughput Screening for Foot and Mouth Disease Virus Antivirals; human cells with a luciferase reporter of 2A StopGo recoding; control for the full effect not named in the record; Potency, µM (doses to about 57.9 µM), for inactives: at the top dose signal change, negative = less light; 410,000 tested, 1.2% active; AID 1159524, 2015; active = well fitted falling curve with a large enough effect; inconclusive = small, poorly fitted or top-dose-only effect; inactive = no such curve, though single readings can be large or run the other way; tested in HEK293T cells; note: % is set by controls: 0 for no effect and ±100 for the full control effect; nearly all actives have a fitted effect of over 45% in size; luciferase light after 4 h
Cruzain Triton: qHTS Assay for Promiscuous and Specific Inhibitors of Cruzain (with detergent). purified cruzain, Z-FR-AMC fluorescence, 0.01% Triton. 200,000 tested, 0.43% active. AID 1478, 2009. Potency, µM, for inactives: max response, negative = inhibition, most hits filed as inhibitors. Cruzipain (Trypanosoma cruzi), P25779;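 note: plate controls were neutral wells for no effect and buffer without enzyme for full effect; nearly all actives have a fitted effect of over 40% in size; top concentration of the series not given in the record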
Target sequence (P25779 123-467 limits assumed): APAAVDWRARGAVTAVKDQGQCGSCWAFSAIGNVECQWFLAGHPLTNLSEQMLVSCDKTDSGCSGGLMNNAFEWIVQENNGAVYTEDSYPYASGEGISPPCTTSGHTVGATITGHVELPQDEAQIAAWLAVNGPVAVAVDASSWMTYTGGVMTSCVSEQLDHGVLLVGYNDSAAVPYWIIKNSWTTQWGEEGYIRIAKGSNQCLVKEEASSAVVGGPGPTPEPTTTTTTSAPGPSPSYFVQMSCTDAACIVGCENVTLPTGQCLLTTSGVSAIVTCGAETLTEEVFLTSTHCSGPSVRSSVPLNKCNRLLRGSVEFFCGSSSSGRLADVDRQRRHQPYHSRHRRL
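Detergent-containing arm of a paired screen for aggregation-based inhibition: 0.01% Triton X-100 present. Cruzain at 1.5 nM cleaved 2 uM Z-FR-AMC at pH 5.5 with 5 mM DTT; AMC fluorescence gain over 60 s measured activity.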
NS1 inh: qHTS Assay for Inhibitors of Influenza NS1 Protein Function | S. cerevisiae slowed by influenza A NS1, growth recovery by OD600 | Potency, µM (series often up to 46.1 µM), inactives show at the top dose activity, positive = more growth | 270,000 tested, 0.4% active; active means well fitted rising curve with a large enough effect; inconclusive means small, poorly fitted or top-dose-only effect; inactive means no such curve, though single readings can be large or run the other way; note: nearly all actives have a fitted effect of over 50% in size
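Read-out: OD600 growth recovery of NS1-expressing budding yeast. Cells grown overnight at 30C in -URA glucose medium, washed, resuspended and diluted 1:100 in 2% galactose assay medium, pH 6.0. Same strain lacking NS1 served as positive control.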
MARV entry inh: qHTS for inhibitors of binding or entry into cells for Marburg Virus; Marburg virus pseudotyped entry inhibition, cell reporter; control for the full effect not named in the record; about a third of the inactives were read at about 46 µM; Potency, µM (highest dose often 37.8 µM), for the others: at the highest dose activity change, negative = inhibition, most hits filed as inhibitors; 300,000 tested, 1.8% active; active = well fitted inhibition curve with a large enough effect; inconclusive = small, poorly fitted or top-dose-only effect, or effect the other way; inactive = flat fitted curve, though single readings scatter; tested in HEK293 cells; about a fifth of its hits are not listed in these tables; note: % is set by controls: 0 for no effect and ±100 for the full control effect; luciferase read-out
Lassa entry inh: qHTS for Inhibitors of binding or entry into cells for Lassa Virus | Lassa virus pseudotype entry inhibition, cell reporter; control for the full effect not named in the record | Potency, µM (titrated, usually from 37.9 µM), for inactives: top-dose activity change, negative = inhibition, usual class: inhibitors | 300,000 tested, 1.2% active; active means well fitted inhibition curve with a large enough effect; inconclusive means small, poorly fitted or top-dose-only effect, or effect the other way; inactive means flat fitted curve, though single readings scatter; tested in HEK293 cells; note: % is set by controls: 0 for no effect and ±100 for the full control effect; nearly all actives have a fitted effect of over 50% in size; luciferase read-out
RE007 growth inh: qHTS Assay for Inhibitors of the HIV-1 protein Vpr | Potency, µM (series often up to 92.2 µM), for inactives: top-dose activity change, negative = less growth | S. pombe RE007 Vpr strain, BacTiter-Glo ATP luminescence, 24 h; control for the full effect not named in the record | 360,000 tested, 0.21% active; active = well fitted falling curve with a large enough effect; inconclusive = small, poorly fitted or top-dose-only effect; inactive = no such curve, though single readings can be large or run the other way;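 note: % is set by controls: 0 for no effect and ±100 for the full control effect; nearly all actives have a fitted effect of over 50% in size; the assay follows cell death caused by Vpr and the record does not say whether a fall means rescue or toxicity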
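Fission yeast strain RE007, carrying one chromosomally integrated HIV-1 vpr copy, was seeded at OD 0.01 in PMG+AL medium with 23 nL pinned compound. After 24 h at 30 °C and 99% humidity, viability was read by BacTiter-Glo luminescence.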
Cruzain inh noDet: qHTS Assay for Promiscuous and Specific Inhibitors of Cruzain (without detergent); AID 1476, 2009; 200,000 tested, 2.3% active; Potency, µM, inactives show max response, negative = inhibition, actives largely listed as inhibitors; purified cruzain, Z-FR-AMC fluorescence, no detergent;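 note: plate controls were enzyme without inhibitor for no effect and buffer without enzyme for full effect; nearly all actives have a fitted effect of over 40% in size; top concentration of the series not given in the record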
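Detergent-free condition (0.00005% Triton X-100) in acetate buffer pH 5.5 with DTT. 1.5 nM enzyme and compound were pre-mixed 15 min, then 2 uM Z-FR-AMC substrate added; reaction progress from fluorescence change between first and third reads (60 s).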
SARS PLpro yeast: qHTS of Yeast-based Assay for SARS-CoV PLP; AID 485353, 2010; S. cerevisiae expressing SARS-CoV PLpro, growth rescue; control for the full effect not named in the record; 330,000 tested, 0.19% active; Potency, µM (titrated, usually from 32.9 µM), without a hit: top-dose activity, positive = growth rescue; active means well fitted rising curve with a large enough effect; inconclusive means small, poorly fitted or top-dose-only effect; inactive means no such curve, though single readings can be large or run the other way; note: 0% is about no effect; nearly all actives have a fitted effect of over 55% in size; growth read by luminescence after 48 h
Numbers without * were called inactive; ? = inconclusive; nt = no result given; & = joins results of further samples; ! = not active in a repeat; [ ] = another dose, or the depositor's remark. Unless noted, calls come from the whole dose curve; as a rule, active = well fitted curve in the direction sought with a large enough effect; inconclusive = small, poorly fitted or top-dose-only effect, or another doubt; inactive = no such curve, though single readings can be large; an effect the other way counts as inactive or inconclusive. Potency is the fitted concentration of half-maximal effect.

SMILES	2A StopGo	Cruzain Triton	NS1 inh	MARV entry inh	Lassa entry inh	RE007 growth inh	Cruzain inh noDet	SARS PLpro yeast
Cc1ccc(NC(=O)CN(c2ccccc2)S(=O)(=O)N(C)C)cc1Cl	0%	-9.6%	nt	?	-11%[46.1 µM]	nt	0%	nt
Cc1cccc(OCc2nnc(SCC(=O)N(C(C)C)C(C)C)n2Cc2ccco2)c1C	?	-11%	-14%	?	-15%	-8%	?	-3%
CN1C(=O)N(C)C(=O)C2(Cc3c(ccc4ccccc34)N(C)C2)C1=O	-1%	-3.3%	-10%	4%	-11%	-10%	3%	-6%
CCOC(=O)c1sc(NC(=O)CSc2nnnn2-c2ccc(C)c(C)c2)nc1C	-1%	2.8%	2%	16%	?	21%	10%	-7%
Cc1cc(C)n(CC(=O)N2CCCC(N3CCN(c4cccc(C(F)(F)F)c4)CC3)C2)n1 (stereo unspecified)	?	nt	5%	-4%	?	2%	nt	-1%
Cc1ccnc(N/C=C(/NC(=O)c2ccccc2)C(=O)N/N=C\c2ccc(Cl)cc2)n1	-19%	nt	-4%	nt	nt	18%	nt	3%
COc1cc(Cl)c(C)cc1NC(=O)[C@@H]1CCCN1C(=O)c1cccs1	-17%	-1.4%	3%	nt	nt	21%	5%	?
CS(=O)(=O)N(CC(=O)N/N=C/c1cccs1)c1cccc(Cl)c1Cl	0%	-2.4%	17%	-3%	1%	-16%	6%	3%
CCNc1ccc(C(=O)OCC(=O)N2c3ccccc3NC(=O)C2(C)C)cc1[N+](=O)[O-]	20µM*	-7.1%	6%	-29%	?	12%	-5%	0%
CCCOc1ccc(N2C(=O)CC(N3CCN(CCN=CC4C(=O)CC(C)(C)CC4=O)CC3)C2=O)cc1 (stereo unspecified)	-22%	nt	nt	3%[46.1 µM]	-14%[46.1 µM]	-3%	nt	-13%
O=C(NC1CCCCC1)N1CCCCCC1	nt	-2.1%	6%	19%	8%	-1%	4%	2%
COc1ccc(C2C3=C(CCCC3=O)Nc3nc(C(F)(F)F)nn32)c(OC)c1OC (stereo unspecified)	0%	-1.2%	5%	-17%	3%	2%	4%	-1%
Cn1cccc1Cc1nnc(SCC(=O)NC2CCCC2)n1-c1ccc(F)cc1	-11%	-1.8%	7%	nt	nt	-14%	-1%	2%
CCOc1ccc(-n2c(SCC(N)=O)nc3sc4c(c3c2=O)CCN(C)C4)cc1	3%	nt	-2%	-6%	?	1%	nt	0%
Oc1ccc(Cl)cc1Cc1ccccc1	-5%	-14%	nt	nt	nt	?	-4%	nt
CCSc1c(-c2ccccc2)nc2c(C)cccc2c1C(=O)O	-24%	-11%	-6%	10%	?	-6%	-8%	5%
C/C(=N\NC(=O)C1CC1)c1ccc(C)c(C)c1	26%	nt	26%	1%[46.1 µM]	?	-15%	nt	-2%
COc1ccc(-c2cc(C(F)(F)F)nc(NCc3ccco3)n2)cc1OC	-20%	-15%	2%	-2%	3%	0%	?	-2%
CCN(CC)C(=O)C(=O)c1cn(CC(=O)NCC2CCCO2)c2ccccc12 (stereo unspecified)	-3%	nt	1%	23%[46.1 µM]	?	-8%	nt	1%
COc1cc2ncc(S(=O)(=O)c3ccccc3)c(N3CCCC(C)C3)c2cc1OC (stereo unspecified)	-28%	nt	-51%	nt	nt	13%	nt	29%
CCN(CC(=O)Nc1ccccc1C(F)(F)F)C(=O)CCSc1ccc(F)cc1	?	nt	nt	-16%	-48%	0%	nt	9%
CCCCCCCCCC[Si](C)(C)CCC(=O)NC(Cc1ccc(C)cc1)c1ccccc1 (stereo unspecified)	nt	-2.1%	-3%	7.9µM*!	-28%	nt	7%	nt
COc1ccc(OC)c(/C=C/C(=O)OCC(=O)Nc2ccc(Cl)c(S(=O)(=O)N(C)C)c2)c1	-5%	nt	nt	-19%[46.1 µM]	-10%	2%	nt	-1%
Cc1cnc(C(=O)OC(C)C(=O)c2c(C)[nH]c3ccccc23)cn1 (stereo unspecified)	-9%	nt	nt	-12%	0%	-15%	nt	?
O=C(O)CSc1nc2ccc(Br)cc2[nH]1	-12%	nt	nt	6%[46.1 µM]	17%[46.1 µM]	8%	nt	nt
CCOc1ccc(-c2nnc(SCC(=O)N3CCOCC3)o2)cc1	25%	-3.1%	-5%	?	30%	-6%	-2%	9%
COCCCN1C(=O)c2ccc(C(=O)OCC(=O)N3CCN(c4ccccc4)CC3)cc2C1=O	-28%	nt	nt	5%[46.1 µM]	6%	7%	nt	-8%
COc1cc(CN2CCN(Cc3ccc(C)cc3)CC2)c([N+](=O)[O-])cc1OC	?	nt	nt	?	-2%[46.1 µM]	4%	nt	1%
CC1(C)CC2CC(C)(CN2C(=S)NC(=O)c2ccccc2Cl)C1 (stereo unspecified)	8%	-2.2%	-7%	-1%	-24%	-2%	11%	-15%
Cc1ccc2nc(SCC(=O)NCc3ccco3)nc(=O)n2c1	-14%	nt	nt	8%	5%	-11%	nt	0%
O=C(NCc1cccs1)C(=O)c1cn(CC(=O)N2CCOCC2)c2ccccc12	8%	nt	nt	1%[46.1 µM]	11%	52%	nt	0%
COc1ccc(/C=C/C(=O)Nc2ccc3nc4c(c(Nc5ccc(OC)c(OC)c5)c3c2)CCCC4)cc1	-19%	-28%	nt	?	?	nt	?	nt
COc1ccc(-n2nc(C(=O)NCC(=O)NC3CCCC(C)C3C)c3ccccc3c2=O)cc1 (stereo unspecified)	-22%	nt	29%	?	?	9%	nt	1%
Cc1ccc(CNC(=O)Cc2c(C)c3c(cc(C)c4c(C)coc43)oc2=O)cc1	14%	2.4%	nt	1%[46.1 µM]	17%[46.1 µM]	nt	5%	nt
CC1=C(C(=O)Nc2cccnc2)C(c2cccc(F)c2)n2nc(SCc3ccccc3)nc2N1 (stereo unspecified)	-17%	-0.8%	nt	7%[46.1 µM]	24%[46.1 µM]	nt	-2%	nt
c1ccc(-c2nc(-c3ccccc3)c(Nc3ccc4ccccc4c3)o2)cc1	nt	7.8%	nt	?	?	nt	7%	nt
CCc1nn(C(CC)C(=O)NCCCc2ccccc2)c(=O)c2cc3occc3n12 (stereo unspecified)	-10%	nt	-15%	-19%[46.1 µM]	-24%[46.1 µM]	12%	nt	-4%
O=C(Cn1cc([N+](=O)[O-])cn1)NCC1CCCO1 (stereo unspecified)	-11%	-0.8%	20%	2%	0%	nt	-2%	-14%
CC(Nc1nc(=S)nc(Nc2ccc(F)cc2)[nH]1)c1ccccc1 (stereo unspecified)	-15%	nt	?	nt	nt	-7%	nt	1%
Cc1ccc[n+](C(C)C(=O)c2ccc(Cl)cc2)c1 (stereo unspecified)	-4%	nt	3%	nt	nt	-7%	nt	6%
O=C(OCC#CCSc1nnc(-c2ccccc2)o1)c1cccs1	32%[activator]	-3.4%	-82%	26%&26%	15%	-8%	7%	-8%
O=C(COC(=O)CNC(=O)c1ccc(F)cc1)Nc1cccc(S(=O)(=O)N2CCCC2)c1	-11%	nt	nt	1%[46.1 µM]	4%	-19%	nt	6%
Cc1nnc2sc(-c3ccc(-c4ccc(Cl)c(C(F)(F)F)c4)o3)nn12	?	-2.2%	?	?	-2%	-9%	?	-5%
Nc1nc(SCCO)[nH]c(=O)c1NC(=O)c1ccc(Br)o1	-11%	nt	-1%	0%	-2%	4%	nt	-1%
COC(=O)c1sccc1NC(=O)CC1C(=O)NCCN1C(=O)Nc1ccccc1 (stereo unspecified)	-7%	nt	1%	?	?	-8%	nt	1%
O=C(CSc1nc2ccccc2n1Cc1ccccc1)N1CCN(c2ccc(F)cc2)CC1	-5%	-0.7%	nt	-2%[46.1 µM]	nt	nt	0%	nt
O=C(N/N=C/c1ccccc1O)NC12CC3CC(CC(C3)C1)C2	10%	nt	-6%	?	?	13%	nt	-3%
COc1ccc2c(c1)c1c(c(=O)n(-c3ccc(F)c(Cl)c3)c(=O)n1Cc1ccccc1F)n2C	4%	-0.9%	nt	nt	-1%[46.1 µM]	nt	-3%	nt
COc1cc(/C=N/n2cnnc2)ccc1OCC(=O)N1CCOCC1	22%	-6.7%	-4%	6%&26%	27%&-4%	3%	-13%	15%
CC(C)CC(=O)NC(=S)Nc1nc(-c2cccc3ccccc23)cs1	-22%	1.1%	12%	-17%	?	6%	?	3%

(further entries)
SMILES	2A StopGo	Cruzain Triton	NS1 inh	MARV entry inh	Lassa entry inh	RE007 growth inh	Cruzain inh noDet	SARS PLpro yeast
CCN1CCCC1CNC(=O)CCNC(=O)c1cc(OC)c(OC)c(OC)c1 (stereo unspecified)	0%	0.3%	-4%	-8%	7%	-7%	1%	1%
CC(C)(C)c1ccc(C(=O)N2CCCN(c3ccc([N+](=O)[O-])cn3)CC2)cc1	?	nt	-5%	nt	nt	-10%	nt	1%
Cc1oc(S(=O)(=O)N2CCOCC2)cc1C(=O)Nc1ccc(F)cc1	-14%	nt	0%	-9%[46.1 µM]	-17%	-15%	nt	0%
CC1CC(c2ccccc2)n2nc(NC(=O)CCc3ccccc3)nc2N1 (stereo unspecified)	0%	4.1%	-5%	-16%	-8%	5%	1%	6%
Cn1c(CNC(=O)C(Cc2ccccc2)NC(=O)c2ccccc2)cc(=O)n(C)c1=O (stereo unspecified)	15%	nt	0%	?	?	1%	nt	-4%
CCN1CCc2nc(NC(=O)c3ccc4c(c3)OCCO4)sc2C1	38%[activator]	1.0%	4%	1%	?	-10%	-24%	-4%
CC(=O)c1ccc(NC(=O)CCCN2C(=O)/C(=C/C(C)=C/c3ccccc3)SC2=S)cc1	-3%	-9.4%	-1%	?	11%	nt	32µM*	9%
NC(=O)CSc1nc2ccccc2nc1SCC(N)=O	0%	nt	nt	?	-1%	21%	nt	1%
Cc1ccc(C(=O)COC(=O)c2n[nH]c(=O)c3ccccc23)cc1	-7%	0.7%	4%	?	10%	-6%	-2%	-2%

Assay outcomes from PubChem BioAssay.
